From PubChem
SARS PLpro yeast = qHTS of Yeast-based Assay for SARS-CoV PLP. S. cerevisiae expressing SARS-CoV PLpro, growth rescue; control for the full effect not named in the record. Potency, µM (highest dose often 32.9 µM), for inactives: top-dose activity, positive = growth rescue. 0.19% of 330,000 active. AID 485353, 2010; active means well fitted rising curve with a large enough effect; inconclusive means small, poorly fitted or top-dose-only effect; inactive means no such curve, though single readings can be large or run the other way; note: 0% is about no effect; nearly all actives have a fitted effect of over 55% in size; growth read by luminescence after 48 h
Marburg entry inh = qHTS for inhibitors of binding or entry into cells for Marburg Virus; 1.8% of 300,000 active; Marburg virus pseudotyped entry inhibition, cell reporter; control for the full effect not named in the record; about a third of the inactives were read at about 46 µM; Potency, µM (highest dose often 37.8 µM), without a hit: at the highest dose activity change, negative = inhibition, hits mostly inhibitors; active = well fitted inhibition curve with a large enough effect; inconclusive = small, poorly fitted or top-dose-only effect, or effect the other way; inactive = flat fitted curve, though single readings scatter; tested in HEK293 cells; about a fifth of its hits are not listed in these tables; note: % is set by controls: 0 for no effect and ±100 for the full control effect; luciferase read-out
NS1 function inh = qHTS Assay for Inhibitors of Influenza NS1 Protein Function; 0.4% of 270,000 active; AID 2326, 2010; S. cerevisiae slowed by influenza A NS1, growth recovery by OD600; Potency, µM (highest dose often 46.1 µM), for inactives: at the top dose activity, positive = more growth; active means well fitted rising curve with a large enough effect; inconclusive means small, poorly fitted or top-dose-only effect; inactive means no such curve, though single readings can be large or run the other way; note: nearly all actives have a fitted effect of over 50% in size
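OD600 was taken as the measure of yeast growth restored by compound in an NS1-expressing S. cerevisiae strain. Cells had been washed out of glucose medium and diluted 1:100 into galactose -URA medium, pH 6.0.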
RE007 growth inh = qHTS Assay for Inhibitors of the HIV-1 protein Vpr. S. pombe RE007 Vpr strain, BacTiter-Glo ATP luminescence, 24 h; control for the full effect not named in the record. Potency, µM (highest dose often 92.2 µM), for the others: at the top dose activity change, negative = less growth. 0.21% of 360,000 active. AID 651644, 2012; active = well fitted falling curve with a large enough effect; inconclusive = small, poorly fitted or top-dose-only effect; inactive = no such curve, though single readings can be large or run the other way;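 note: % is set by controls: 0 for no effect and ±100 for the full control effect; nearly all actives have a fitted effect of over 50% in size; the assay follows cell death caused by Vpr and the record does not say whether a fall means rescue or toxicity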
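Fission yeast strain RE007, carrying one chromosomally integrated HIV-1 vpr copy, was seeded at OD 0.01 in PMG+AL medium with 23 nL pinned compound. After 24 h at 30 °C and 99% humidity, viability was read by BacTiter-Glo luminescence.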
Cruzain Triton = qHTS Assay for Promiscuous and Specific Inhibitors of Cruzain (with detergent); Cruzipain (Trypanosoma cruzi), P25779; purified cruzain, Z-FR-AMC fluorescence, 0.01% Triton; Potency, µM, without a hit: max response, negative = inhibition, hits mostly inhibitors; 0.43% of 200,000 active; AID 1478, 2009;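 note: plate controls were neutral wells for no effect and buffer without enzyme for full effect; nearly all actives have a fitted effect of over 40% in size; top concentration of the series not given in the record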
Target sequence (P25779 123-467 limits assumed): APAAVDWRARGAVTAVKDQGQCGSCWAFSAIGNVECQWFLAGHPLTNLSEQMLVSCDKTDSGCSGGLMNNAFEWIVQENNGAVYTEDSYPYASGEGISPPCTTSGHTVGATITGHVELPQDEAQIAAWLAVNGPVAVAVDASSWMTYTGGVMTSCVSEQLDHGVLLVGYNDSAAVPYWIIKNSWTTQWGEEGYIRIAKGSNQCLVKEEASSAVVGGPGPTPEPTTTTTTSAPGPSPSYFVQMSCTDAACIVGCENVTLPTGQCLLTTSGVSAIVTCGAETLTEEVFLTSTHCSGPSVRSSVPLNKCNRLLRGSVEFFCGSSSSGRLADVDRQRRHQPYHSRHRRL
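Cruzain (1.5 nM) preincubated 15 min at RT with compound in 100 mM sodium acetate pH 5.5, 5 mM DTT, 0.01% Triton X-100. Reaction started with 2 uM Z-FR-AMC; AMC fluorescence (ex 360/em 450 nm) change over 60 s gave rate.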
Cruzain inh noDet = qHTS Assay for Promiscuous and Specific Inhibitors of Cruzain (without detergent); purified cruzain, Z-FR-AMC fluorescence, no detergent; Cruzipain (Trypanosoma cruzi), P25779; 2.3% of 200,000 active; AID 1476, 2009; Potency, µM, for inactives: max response, negative = inhibition, actives largely listed as inhibitors;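 note: plate controls were enzyme without inhibitor for no effect and buffer without enzyme for full effect; nearly all actives have a fitted effect of over 40% in size; top concentration of the series not given in the record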
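Detergent-free condition (0.00005% Triton X-100) in acetate buffer pH 5.5 with DTT. 1.5 nM enzyme and compound were pre-mixed 15 min, then 2 uM Z-FR-AMC substrate added; reaction progress from fluorescence change between first and third reads (60 s).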
StopGo reporter = High Throughput Screening for Foot and Mouth Disease Virus Antivirals | AID 1159524, 2015 | human cells with a luciferase reporter of 2A StopGo recoding; control for the full effect not named in the record | Potency, µM (series often up to 57.9 µM), for inactives: at the top dose signal change, negative = less light | 1.2% of 410,000 active; active = well fitted falling curve with a large enough effect; inconclusive = small, poorly fitted or top-dose-only effect; inactive = no such curve, though single readings can be large or run the other way; tested in HEK293T cells; note: % is set by controls: 0 for no effect and ±100 for the full control effect; nearly all actives have a fitted effect of over 45% in size; luciferase light after 4 h
LASV entry inh = qHTS for Inhibitors of binding or entry into cells for Lassa Virus; 1.2% of 300,000 active; Lassa virus pseudotype entry inhibition, cell reporter; control for the full effect not named in the record; Potency, µM (series often up to 37.9 µM), without a hit: at the highest dose activity change, negative = inhibition, actives largely listed as inhibitors; active means well fitted inhibition curve with a large enough effect; inconclusive means small, poorly fitted or top-dose-only effect, or effect the other way; inactive means flat fitted curve, though single readings scatter; tested in HEK293 cells; note: % is set by controls: 0 for no effect and ±100 for the full control effect; nearly all actives have a fitted effect of over 50% in size; luciferase read-out
* = called active by the depositor; u = inconclusive; x = no result given; & = joins results of further samples; [ ] = another dose, or the depositor's remark. Unless noted, calls come from the whole dose curve; as a rule, active = well fitted curve in the direction sought with a large enough effect; inconclusive = small, poorly fitted or top-dose-only effect, or another doubt; inactive = no such curve, though single readings can be large; an effect the other way counts as inactive or inconclusive. Potency is the fitted concentration of half-maximal effect. Not a hit list (roughly 4.6% active in at least one column).

molecule	SARS PLpro yeast	Marburg entry inh	NS1 function inh	RE007 growth inh	Cruzain Triton	Cruzain inh noDet	StopGo reporter	LASV entry inh
CCc1nnc(NC(=O)CSc2nnc(Cc3ccc(OC)cc3)o2)s1	10%	1%	-6%	-18%	-1.1%	-4%	x	2%
CCCCOc1cccc(C(=O)Nc2ccc(NC(=O)c3cccs3)cc2)c1	1%	u	12%	6%	x	x	13%	u
CC(C)(C)C(=O)Nc1cccc(-c2nc3ccccc3c(=O)o2)c1	2%	-12%	16%	-1%	3.1%	9%	x	u
c1ccc2c(c1)ncc1nncn12	x	u	x	x	-3.3%	1%	7%	18%[46.1 µM]
Cc1ccc(C(=O)N/C(=C/c2ccco2)C(=O)OCN2C(=O)c3ccccc3C2=O)cc1	u	u	-7%	x	0.35µM*	0.4µM*	-7%	10%
O=C(Nc1ccc(F)cc1)C(NC1CCCCC1)c1ccccc1 (stereo not drawn)	0%	u	x	5%	x	x	8%	-2%
CCn1c(SCC(=O)N/N=C/c2ccc(C)s2)nc2ccccc21	-5%	2.6µM*	-19%	7%	-5.2%	-5%	8%	-19%
NC(=O)CCN1CCN(Cc2nc(C(c3ccccc3)c3ccccc3)no2)CC1	-1%	15%[46.1 µM]	0%	-21%	x	x	-19%	-22%[46.1 µM]
COc1cccc(N2CCN(c3ccc4nnc(CCC(=O)Nc5ncccc5C)n4n3)CC2)c1	0%	5%[46.1 µM]	9%	-8%	x	x	-12%	u
CN1CCN(C(=O)/C(=C\c2ccccc2)c2ccccc2)CC1	-1%	-1%	1%	-7%	0.8%	-4%	16%	13%
NNc1nc(NCc2ccccc2)nc(N2CCOCC2)n1	-8%	u	17%	13%	-2.9%	5%	-21%	-4%
Clc1cc(Br)ccc1OCCCn1ccnc1	-46%	u	1%	1%	0.4%	9%	-8%	8%
Cc1ccc(Cn2cc(S(=O)(=O)c3ccc(C(C)C)cc3)c(=O)c3cc4c(cc32)OCO4)cc1	-11%	0%	u	6%	-5.5%	32µM*	41%[activator]	5%
CCn1c(CC(=O)Nc2ccccc2F)nnc1SCC(=O)NC1CCCCC1	0%	-1%[46.1 µM]	9%	22%	x	x	-5%	u
CCc1nnc(NS(=O)(=O)c2ccc(N=Cc3c(O)n(-c4ccccc4)c(=O)[nH]c3=O)cc2)s1	0%	28%[46.1 µM]	x	21%	x	x	4%	12%
Cc1ccc(-c2nc3ccccc3s2)cc1NC(=S)NC(=O)c1ccccc1	5%	-1%	-1%	0%	4.8%	u	18%	18%
CCOc1ccc(-n2c(-c3ccccc3)c[n+]3c2CCC3)cc1	0%	u	4%	0%	x	x	u	u
Cc1cc(C)cc(NC(=O)COC(=O)CN=C2NS(=O)(=O)c3ccccc32)c1	-1%	x	3%	-12%	x	x	47%	x
CCCNNC(=O)C(O)(c1ccccc1)c1ccccc1	23%	u	4%	2%	-1.1%	8%	u	-27%
O=C(Nc1ccc([N+](=O)[O-])cc1)C(Cc1ccccc1)N1C(=O)c2cccc3cccc(c23)C1=O (stereo not drawn)	2%	-8%[46.1 µM]	u	-6%	x	x	0%	u
CCOP(=O)(OCC)c1nc(-c2ccccc2)oc1N1CCCCC1	2%	x	-1%	0%	x	x	-9%	x
CCc1c(C)sc(NC(=O)c2cc(C)on2)c1C#N	2%	-7%	-28%	-4%	0.6%	2%	47%[activator]	10%
CC(C)c1nc2ccc(C(=O)NCc3ccc(N(C)C)cc3)cc2o1	x	x	x	x	-0.3%	-3%	4%	-3%[46.1 µM]
O=C(Nc1cccc(C(=O)O)c1)Nc1ccccc1Cl	-1%	8.9µM*	3%	1%	x	x	10µM*	4µM*
CCOc1ccc(S(=O)(=O)Nc2cc(C)ccn2)c2ccccc12	3%	-4%	8%	-2%	-10%	-2%	62%[activator]	-3%
O=C(/C=C/N1CCOCC1)c1coc2ccccc12	-6%	u	-42%	4%	-7.5%	-5%	-20%	u
Cc1ccccc1OCCOc1cccc(/C=N/NC(=O)Cc2nnc(N)s2)c1	-2%	u	12%	-5%	-2.4%	15%	u	u
COc1cc(S(=O)(=O)NCCc2c(C)[nH]c3ccc(C)cc23)ccc1Br	x	x	x	x	-11%	-16%	28%	u
O=C1OCc2ccc([N+](=O)[O-])cc21	x	1%[46.1 µM]	x	4%	x	x	1%	16%[46.1 µM]
C=CCOc1ccc(-c2n[nH]c(=S)o2)cc1	-4%	-24%	-59%	-11%	x	x	28%	23%
CC(C)COC(=O)Cc1c(O)c2ccccc2[nH]c1=O	0%	11%	1%	-9%	-2.5%	1%	-16%	5%
CCn1c(=O)c([N+](=O)[O-])c(NCCCn2ccnc2)c2ccccc21	-1%	3%	0%	-21%	x	x	-11%	12%
Cc1ccc(NC(=O)c2ccco2)cc1NC(=O)CSc1nnc(-c2cccs2)n1C	-5%	2%&2%	-11%	-1%	-2.4%	-14%	4%	0%
Cc1ccc(CNS(=O)(=O)c2ccc3c(c2)OCCO3)cc1	13%	-2%	-14%	-19%	-3.0%	-4%	2%	-1%
CC(C)(C)c1ccc(OCC(O)CN(CCO)CC(O)Cn2ccc3ccccc32)cc1 (stereo not drawn)	-18%	-32%	-4%	2%	-2.7%	u	u	u
O=C(COc1ccccc1)Nn1c(-c2ccccc2)nc2ccccc2c1=O	-11%	-9%	u	-11%	-0.4%	11%	-15%	29%
COc1ccc(C2CC(c3ccccc3)=NN2C(=O)COC(=O)c2cc(S(=O)(=O)N3CCOCC3)ccc2F)cc1 (stereo not drawn)	-5%	-27%&-9%	u	30%	-3.7%	6%	-18%	-17%&12%
COc1cccc(CNS(=O)(=O)c2ccc3c(c2)C(C)(C)C(=O)N3C)c1	0%	x	6%	2%	x	x	26%	x
O=C(COC(=O)c1cccc(Cl)c1)NCc1ccccc1	-2%	-11%[46.1 µM]	x	-1%	x	x	2%	0%[46.1 µM]
O=C(NCc1ccccc1Br)c1ccc2c(c1)nc1n2CCOC1	x	x	x	x	1.9%	14%	22%	-16%[46.1 µM]
c1ccc(-c2cc3c(-n4cccc4)ncnc3o2)cc1	-3%	1%	-7%	-20%	-15%	-4%	-13%	-2%
O=C(CN(Cc1ccccc1)S(=O)(=O)c1ccc(Br)cc1)NCC1CCCO1 (stereo not drawn)	-3%	-26%[46.1 µM]	-11%	-11%	x	x	-15%	-5%
Cc1ccc(C)c(S(=O)(=O)c2nnn3c2nc(Nc2ccc(C)c(C)c2)c2ccccc23)c1	x	17%[46.1 µM]	x	x	0.6%	-2%	26%	x
O=c1c2ccccc2c(C=Nc2ccc(Cl)cn2)c(O)n1-c1cc(Cl)ccc1N1CCOCC1	-1%	-10%&-10%	0%	-5%	-2.0%	u	-4%	-10%
CCC(=O)N1CCN(c2ccc(NC(=O)c3ccc([N+](=O)[O-])o3)cc2Cl)CC1	-24%	u	x	-11%	x	x	u	u
O=S(=O)(NCC(c1ccco1)S(=O)(=O)c1ccccc1)c1ccccc1 (stereo not drawn)	x	x	x	x	-1.8%	-7%	33%[activator]	u
CCOC(=O)c1c(C)[nH]c(C)c1S(=O)(=O)N1CCCC(C(=O)N2CCN(c3cc(C)ccc3C)CC2)C1 (stereo not drawn)	x	x	x	x	-8.2%	u	u	-26%[46.1 µM]
